TRPML1 agonist: activates the human TRPML1 channel; 410,000 tested, 0.12% active; AID 624414; TRPML1-expressing cells, Ca2+ dye fluorescence, FDSS; host cell line not named in the record; reference of the full effect not given here; activation, % (test concentration not listed); in the data active = activation above about 50%; inconclusive = about 30% to 50%; inactive = below about 30%; note: 0% is about no effect; the text of the record puts the active cut at 80%
Target sequence (Q9GZU1 whole entry, looked up): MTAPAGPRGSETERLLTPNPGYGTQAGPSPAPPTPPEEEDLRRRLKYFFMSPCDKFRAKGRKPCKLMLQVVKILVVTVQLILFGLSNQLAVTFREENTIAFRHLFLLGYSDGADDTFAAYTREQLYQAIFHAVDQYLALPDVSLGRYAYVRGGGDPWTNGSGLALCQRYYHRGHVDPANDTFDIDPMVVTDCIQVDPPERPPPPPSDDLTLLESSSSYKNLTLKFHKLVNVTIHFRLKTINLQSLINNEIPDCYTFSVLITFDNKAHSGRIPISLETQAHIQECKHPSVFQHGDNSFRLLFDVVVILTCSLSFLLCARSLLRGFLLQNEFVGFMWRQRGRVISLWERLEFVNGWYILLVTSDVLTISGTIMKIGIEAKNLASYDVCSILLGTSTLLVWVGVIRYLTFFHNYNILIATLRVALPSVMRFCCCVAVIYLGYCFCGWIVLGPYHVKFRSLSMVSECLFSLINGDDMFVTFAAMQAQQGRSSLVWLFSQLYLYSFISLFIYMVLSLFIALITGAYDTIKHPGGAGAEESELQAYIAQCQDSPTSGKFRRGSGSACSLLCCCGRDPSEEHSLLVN
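Calcium fluorescence on an FDSS kinetic reader gave the read-out. Tet-induced TRPML1-DL cells were plated overnight, dye-loaded (Ca8 with quencher, 45-90 min, room temperature, dark), then read 110 s after compound addition, and again 110 s after 4uM final 54-4 (EC80).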
D2 potentiator: positive allosteric modulators of human D2 dopamine receptor; AID 624464; P14416; DiscoveRx D2 beta-arrestin cells, luminescence, 90 min; 100% = 57 uM dopamine signal; 360,000 tested, 0.23% active; potentiation, % (test concentration not listed); active = potentiation of 50% or more; inconclusive = 30% to 50%; inactive = 30% or less;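 note: compound concentration not given in the record; tested on top of an EC20 dose of dopamine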
Target sequence (P14416 whole entry, looked up): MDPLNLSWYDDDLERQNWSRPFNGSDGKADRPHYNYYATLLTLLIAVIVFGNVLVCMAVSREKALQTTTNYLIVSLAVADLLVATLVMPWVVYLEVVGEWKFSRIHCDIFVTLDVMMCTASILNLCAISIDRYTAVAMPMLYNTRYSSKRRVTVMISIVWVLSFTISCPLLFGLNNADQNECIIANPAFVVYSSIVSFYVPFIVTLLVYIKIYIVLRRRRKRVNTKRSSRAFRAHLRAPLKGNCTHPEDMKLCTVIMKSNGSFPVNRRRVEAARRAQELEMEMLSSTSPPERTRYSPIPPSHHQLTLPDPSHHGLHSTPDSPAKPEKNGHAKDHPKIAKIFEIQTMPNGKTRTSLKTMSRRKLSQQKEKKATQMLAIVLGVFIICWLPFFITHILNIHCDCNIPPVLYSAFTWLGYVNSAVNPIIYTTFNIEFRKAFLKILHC
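PathHunter D2 cells, attached overnight at 37 deg C, received compound in DMSO plus dopamine at EC20 (50 nM final) for 90 min at 37 deg C. Beta-arrestin recruitment was read as luminescence after 1 h with detection reagent at ambient temperature.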
CtBP-E1A inh: blocks the CtBP interaction with E1A. AlphaScreen GST-E1A/His-CtBP binding, 1536-well; hits give low values; control for the full effect not named in the record. activity change, % (test concentration not listed). 340,000 tested, 0.49% active. AID 651724; in the data active means activity change below about -65%; inconclusive means about -30% to -65%; inactive means above about -30%; note: % is set by controls: 0 for no effect and ±100 for the full control effect; compound concentration not given in the record
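Protein mix (5X: 125 nM each GST-E1A, His-CtBP) was incubated with pinned compound 2 h at 37 deg C in dark, in 50 mM Tris pH 8.0 buffer with 300 mM NaCl. Glutathione donor and nickel acceptor beads followed; AlphaScreen signal read after 1 h.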
Six1-Eya2 blk: Six1/Eya2 interaction inhibition; AlphaScreen GST-Six1/His-Eya2 binding, biochemical; hits give low values; control for the full effect not named in the record; activity change, % (no concentration beside the values); 360,000 tested, 0.56% active; AID 651725; in the data active = activity change below about -65%; inconclusive = about -30% to -65%; inactive = above about -30%; note: % is set by controls: 0 for no effect and ±100 for the full control effect; compound concentration not given in the record
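AlphaScreen luminescence read after one hour at 37 °C in darkness. Pin-transferred compounds met GST-Six1 and His-Eya2 protein (5X stock 250 nM/500 nM) plus glutathione donor and Ni-chelate acceptor beads (5X, 50 ug/mL).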
PINK1 modulator: changes PINK1 expression | PINK1 immunofluorescence, high-content cytometry, 24 h | Potency, µM (titrated, usually from 76.6 µM), inactives show at the top dose activation (PINK1 increase), actives largely listed as activators | 410,000 tested, 0.2% active | AID 624263; active = well fitted activation curve with a large enough effect; inconclusive = small, poorly fitted or top-dose-only effect; inactive = flat fitted curve, though single readings scatter; cell line not stated here;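 note: potency is the fitted concentration of half-maximal effect; % of control where 0% means no effect; nearly all actives have a fitted effect of over 65% in size; a mitochondrial uncoupler was the plate control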
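Readout is PINK1 immunofluorescence, quantified alongside mitochondrial, cell and nuclear markers by laser-scanning microplate cytometry. Cells from a stable line were exposed to compound titrations (5 concentrations) for 24 hours, with CCCP controls.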
D2 agonist: human D2 receptor agonism in beta-arrestin assay; activation, % (concentration not given with the values); 360,000 tested, 0.084% active; AID 624465; DiscoveRx PathHunter D2 beta-arrestin, luminescence, 90 min; 100% = 57 uM dopamine signal; P14416; in the data active = activation above about 40%; inconclusive = about 15% to 40%; inactive = below about 15%; note: compound concentration not given in the record; the text of the record calls up to 30% inactive
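DiscoveRx PathHunter D2 beta-arrestin cells (2,100/well) attached overnight, then compound-stimulated 90 min at 37 C in HBSS/10 mM HEPES/0.1% Tween-20 buffer; beta-galactosidase complementation read by luminescence after 1 h at ambient temperature. Dopamine 57 uM final (EC100) as control.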
Starred values were filed as active, the others as inactive; ? = inconclusive; . = no result given; [ ] = dose if it differs, or a comment.

A first look:
mol,TRPML1 agonist,D2 potentiator,CtBP-E1A inh,Six1-Eya2 blk,PINK1 modulator,D2 agonist
CCCC(=O)c1cc(F)c(N2CCN(C(=O)OCC)CC2)cc1C,0.3,12,9,11,-1.9%,-1.7
Cc1ccc(N2C(=O)[C@@H]3C(c4cccnc4)=NO[C@@H]3C2=O)c(C)c1,-0.1,-24,.,6,1.5%,-5.4

Main list, previewed entries included:
mol,TRPML1 agonist,D2 potentiator,CtBP-E1A inh,Six1-Eya2 blk,PINK1 modulator,D2 agonist
CCCC(=O)c1cc(F)c(N2CCN(C(=O)OCC)CC2)cc1C,0.3,12,9,11,-1.9%,-1.7
Cc1ccc(N2C(=O)[C@@H]3C(c4cccnc4)=NO[C@@H]3C2=O)c(C)c1,-0.1,-24,.,6,1.5%,-5.4
COc1cc(NC(=O)C/C(C)=N/NC(=O)C(=O)NCCO)c(OC)cc1Cl,1.4,-5,10,-9,2.5%,-0.1
COc1ccc(CCNCC(=O)Nc2c(C)cc(C)cc2C)cc1OC,2.0,-3,0,0,9.1%,6.0
Cc1cccc(NC(=O)C(C)Oc2ccc(C)nc2[N+](=O)[O-])c1 (configuration not stated),-1.1,9,.,-5,1.6%,-0.1
O=C1CCCN1Cc1ncnn1-c1ccccc1,0.1,-9,7,0,0.6%,1.8
O=C(CCC1CCCCC1)NNC(=O)NC12CC3CC(CC(C3)C1)C2,-0.3,-9,19,3,2.3%[38.3 µM],-1.5
CCOC(=O)[C@H]1[C@H]2COc3ccc(Br)cc3[C@@H]2N2C(=O)CN(Cc3ccc(Cl)cc3)C(=O)[C@@]12C,-0.3,-1,8,1,3.1%,-4.1
COc1ccccc1NC(=O)c1cc(C(=O)Nc2ccccc2OC)n(C)n1,2.4,-8,5,-11,7.7%,0.8
NS(=O)(=O)c1ccc(Sc2ccc3c(c2)CCC3)nc1,-0.1,-9,3,-6,-0.1%,-2.8
CN1C(=O)c2cccc3c(S(=O)(=O)Nc4ccc(O)c(C(=O)O)c4)ccc1c23,-0.1,-6,?,-72*,1.7%,-0.1
CCCC(=O)N(CCc1ccccc1)Cc1nc2ccccc2c(=O)[nH]1,3.0,-21,-9,-11,0.1%,-3.5
CC(=O)Nc1ccc(NC(=O)C(C)OC(=O)C2CCN(S(=O)(=O)c3ccccc3C(F)(F)F)CC2)cc1 (configuration not stated),-0.7,-31,1,-7,1.9%,-4.5
Cc1ccc(O)c(NC(=O)C2CCCCC2)c1,2.2,-10,-13,0,0.6%,0.7
CC(C)NC(=O)Cn1nnc(-c2cccc(NC(=O)c3ccccc3F)c2)n1,0.0,4,-1,-2,14%,-0.8
CCCOc1ccc(N2C(=O)CC(NCCCN3CCC(C(N)=O)CC3)C2=O)cc1 (configuration not stated),2.2,-4,-1,1,-0.6%,-2.7
Cc1ncc(CO)c2cc(C(=O)Nc3cccc(F)c3)c(=Nc3cccc(C(N)=O)c3)oc12,0.7,-3,-5,-7,2.0%,2.0
CCOC(=O)C1CCCN(C(=O)/C=C/c2ccc([N+](=O)[O-])cc2)C1 (configuration not stated),-0.6,-2,3,0,-0.9%,0.0
FC(F)(F)c1cccc(NC(=S)NCc2ccccn2)c1,-0.3,-6,-9,-15,7.1%,3.3
N#Cc1ccc(C23CC4(C2)[C@H](CN(P(=O)(c2ccccc2)c2ccccc2)[C@@H]4c2ccccc2)C3c2ccc(Cl)nc2)cc1 (some centres not stated),-0.5,-69,-3,-12,5.1%,-3.1

Whole records, quoted from the list. Order of screens: TRPML1 agonist, D2 potentiator, CtBP-E1A inh, Six1-Eya2 blk, PINK1 modulator, D2 agonist
Listed for CCOC(=O)[C@H]1[C@H]2COc3ccc(Br)cc3[C@@H]2N2C(=O)CN(Cc3ccc(Cl)cc3)C(=O)[C@@]12C = -0.3, -1, 8, 1, 3.1%, -4.1
Listed for CN1C(=O)c2cccc3c(S(=O)(=O)Nc4ccc(O)c(C(=O)O)c4)ccc1c23 = -0.1, -6, ?, -72*, 1.7%, -0.1
Listed for Cc1ncc(CO)c2cc(C(=O)Nc3cccc(F)c3)c(=Nc3cccc(C(N)=O)c3)oc12 = 0.7, -3, -5, -7, 2.0%, 2.0
Listed for CCCOc1ccc(N2C(=O)CC(NCCCN3CCC(C(N)=O)CC3)C2=O)cc1 (configuration not stated) = 2.2, -4, -1, 1, -0.6%, -2.7

(listing goes on)
mol,TRPML1 agonist,D2 potentiator,CtBP-E1A inh,Six1-Eya2 blk,PINK1 modulator,D2 agonist
N=c1n(CCCOc2ccccc2Cl)c2ccccc2n1CC(N)=O,1.2,-9,3,-1,-2.1%,-4.0
COc1ccccc1NS(=O)(=O)c1cc(N)ccc1N1CCCC1,-0.4,-7,-2,-18,-1.9%,-1.1
O=C(NCCc1c[nH]c2ccccc12)c1ccc2c(c1)OCO2,1.9,2,-2,10,-0.3%,5.5
CN(CCOc1ccccc1)C(=O)c1cc([N+](=O)[O-])cc([N+](=O)[O-])c1,-0.4,25,-3,-3,-2.4%,12
C(=N\c1nc2ccccc2n1Cc1ccccc1)/c1cccs1,0.6,-6,13,0,.,-0.9
COc1ccc(-n2c(C)cc(C(=O)Cn3c(NCCO)nc4ccccc43)c2C)cc1,0.8,-10,-17,-11,-4.1%,1.6
Cc1cc(NS(=O)(=O)c2ccc(CC(C)C)cc2)no1,0.1,-3,-4,-1,-1.1%[38.3 µM],0.0
CCN=C1SC(CC(=O)NC(N)=O)C(=O)N1CC (configuration not stated),-0.7,-13,9,0,-2.0%,-2.9
COc1ccc(N2CCN(C3CCCN(C(=O)CN4CCCC4=O)C3)CC2)cc1 (configuration not stated),-0.5,-6,2,1,-0.8%,-0.7
c1ccc(N2CCN(Cc3cn4ccccc4n3)CC2)cc1,-0.3,-16,0,13,1.6%,2.0
CCOc1ccc(NS(=O)(=O)c2ccc(C(=O)N(C)Cc3cccc(OC)c3OC)cc2)cc1,8.1,-9,0,-9,-3.0%,-1.0
O=C(Cn1nc(-c2ccccc2)nc1-c1ccccc1)OC1CCCCC1,4.5,-8,12,12,?,-2.5
O=C1N(Cc2cccc(Cl)c2)C[C@@H]2C[C@@H](c3cccn3-c3ccccn3)N3CCC[C@@]123,-0.8,-11,-4,-11,-1.7%,-3.0
CC(=O)c1sc(NC(=O)c2ccc(F)cc2)nc1-c1ccccc1,0.2,-5,5,4,7.5%,-4.5
O=C(CN1CCC(C(=O)c2cccc(Cl)c2)CC1)Nc1ccc(C(=O)O)cc1,-0.2,-3,0,0,-0.4%,1.0
O=C(O)c1ccc(NC(=S)NCc2ccccc2)cc1,-0.2,-2,7,6,0.9%,-2.6
O=C(CSc1cccc[n+]1[O-])Nc1cccc(S(=O)(=O)NC2=NCCCCC2)c1,3.0,-10,.,4,0.5%,1.4
COCc1c(C(=O)OC)nnn1-c1ccccc1,-1.0,4,5,1,0.2%,0.5
Cc1cc2nc(-c3ccc(C#N)cc3)c(Cc3ccsc3)n2c(C)c1Br,-0.9,.,1,-6,-0.1%,.
COc1ccc2c(c1)c(-c1csc(N)n1)c(C)n2C,-1.1,-5,.,-16,-1.0%,-0.7

The results go on:
Molecule,TRPML1 agonist,D2 potentiator,CtBP-E1A inh,Six1-Eya2 blk,PINK1 modulator,D2 agonist
Cc1ccc(SCc2c(C(=O)N/N=C/c3ccc4c(c3)OCO4)nnn2-c2nonc2N)cc1,0.5,-4,3,0,9.4%,0.0
Cc1c(C(=O)OCc2ccc(F)cc2)sc2nc3n(c(=O)c12)CCC3,1.2,0,-11,-11,13%,-1.6
COCCNC(=O)NC1(C(F)(F)F)Oc2ccc(Cl)cc2O1 (configuration not stated),2.3,9,0,-1,0.8%,3.5
CCOc1cccc(CN2CCCC(N3CCN(c4cccc(Cl)c4)CC3)C2)c1O (configuration not stated),0.8,-21,?,?,13%,-2.3
Cc1cc(NC(=O)CCN2CCN(C/C=C/c3ccccc3)CC2)ccc1Br,-0.4,-13,-2,0,-1.3%,4.1
CC(C)C[C@@H](CN1CCCC1CN1C(=S)NC[C@@H]1Cc1ccc(O)cc1)N1C[C@H](Cc2ccc(O)cc2)N(CCc2ccccc2)C1=S (some centres not stated),0.2,-6,-29,?,1.7%,1.6
CC1CCC(NC(=O)CCN2C(=O)C3CC=CCC3C2=O)CC1 (configuration not stated),0.7,6,-7,4,-1.7%,-0.3
Cc1cc(SCC(=O)OC(C)C(=O)N(C)c2ccccc2)nc2ccccc12 (configuration not stated),2.3,-5,0,2,0.6%,1.1
COc1cc(NC(=S)NCc2cccnc2)cc(OC)c1,0.3,-3,4,0,1.7%,-1.3
Cc1cc(OCCOCCNC(C)C)cc(C)c1Cl,0.4,-13,31,23,1.7%,-3.6
Cc1ccc2c(c1)N(CCC(=O)NCc1cccnc1)C(=O)CO2,-0.2,-27,11,1,0.8%,-0.4
COc1ccc(C)cc1-n1nnnc1SCC1CCCO1 (configuration not stated),-0.4,-2,11,0,0.3%,-1.7
CN(C)S(=O)(=O)c1ccc(C(=O)Nc2nnc(SCC(=O)N3CCOCC3)s2)cc1,-0.4,-12,4,12,0.6%,-3.5
CCOC(=O)CCc1c(C)nc2cc(C3CCCN(C(=O)OC(C)(C)C)C3)[nH]n2c1=O (configuration not stated),1.7,4,4,5,-1.2%,-0.2
Cc1ccc(S(=O)(=O)CCC(=O)NCCN2C(=O)S/C(=C/c3ccc(F)cc3)C2=O)cc1,0.1,0,-3,-4,-0.5%,0.8
O=C(Cn1ncc2c3ccccc3n(Cc3ccccc3)c2c1=O)NC1CCCC1,-0.4,-7,7,0,4.8%,1.5
Cc1ccc(Oc2ncccc2NC(=O)CC2(CC(=O)O)CCCC2)c2c1CCC2,0.5,-3,-3,2,-0.3%,-3.8
O=C(Cn1cnc2c(nnn2-c2ccccc2)c1=O)NCC1CCCO1 (configuration not stated),-0.3,-5,0,8,1.1%,-0.6
Cc1cccc(-n2c(SCC(=O)N3CCN(c4ccccn4)CC3)nnc2N2CCOCC2)c1,-0.2,-2,0,1,-0.7%,-0.8
CCC(=O)Nc1ccc(NC(=O)c2cccc3ccccc23)cc1,0.5,-1,10,10,10%,11
COc1ccc(CN2CCN(Cc3ccc(Br)cc3)CC2)c(OC)c1OC,1.6,-21,.,-8,6.2%,-6.4
O=S1(=O)CC(N2CCSCC2)CN1Cc1cn(Cc2ccc(Cl)cc2)nn1 (configuration not stated),0.0,.,-24,10,-0.9%,.
CCOC(=O)C1=NN(N=O)C2(CC(=O)N(c3cc(C)cc(C)c3)C2=O)C1 (configuration not stated),-0.2,-9,4,3,13%[38.3 µM],-1.6
